# High-throughput results: PubChem, ICCB-Longwood Screening Facility, Harvard Medical School
# AID504770: growth inhibitors of E. coli YBA685 in a screen for V. cholerae RctB (chromosome II replication) inhibitors. E. coli YBA685 rctB-dependent plasmid, OD600 growth, 3 h; hits give low values. z-score (concentration not given with the values). 130,000 tested, 0.27% active. AID 504770;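 active = z-score under -2 on both plates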;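 note: wells of about 30 µL received 100 nL stock; score is relative to mean and SD of the test wells; the first replicate is given; strong numbers were not always called active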
# CapD inh: inhibitors of Bacillus anthracis CapD enzyme. z-score (no concentration beside the values). AID 492967. purified CapD enzyme, fluorescence intensity read-out; hits give low values; some hits fall short of the stated cut. 140,000 tested, 0.23% active;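 active = z-score under -4 in either of two replicates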;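 note: stock transfer was 100 nL into about 40 µL; score is relative to mean and spread of the plate; one replicate is shown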
# * marks the source's active call; other numbers are inactive results; . = no result given; & = joins results of further samples.
structure,CapD inh,AID504770
CC1=C(C(=O)Nc2ccccn2)C(c2ccsc2)C2=C(CC(c3ccco3)CC2=O)N1 (stereo not given),.,-0.55
O=C(COCC(=O)Nc1ccc(Cl)cc1F)Nc1ccc(Cl)cc1F,0.33,0.55
O=C(NCC(O)c1ccccc1)Nc1ccc(F)cc1 (stereo not given),-0.31,-1.1
Cc1ccc(C(=O)Sc2nnc3ccccn23)cc1,0.54,0.95
CSc1cccc(NC(=O)C(=O)NNC(=O)OCC#Cc2ccccc2)c1,-0.05,.
CCCCc1cc(C(=O)Cc2ccccn2)c(O)cc1O,3.2,-0.5
CC(C)OC(=O)CC12CN3CC(CC(=O)OC(C)C)(CN(C1)C(=O)c1ccccc1C3=O)C2=O,.,-0.75
COC(=O)COC(=O)c1ccc2[nH]c(=O)c(=O)[nH]c2c1,.,1.2
O=C(CNS(=O)(=O)c1ccccc1)N1CCCC1,.,-0.25
CC1CN(c2cc(=O)n(-c3ccc(Cl)cc3)c(=O)[nH]2)CC(C)O1 (stereo not given),-4.1*,0.25
COc1ccc(OC)c(C(c2c(O)[nH]c(=S)[nH]c2=O)N2CCN(c3ccccc3)CC2)c1 (stereo not given),0.46,-0.65
CCC(CO)n1c(SCc2cc(=O)oc3cc(C)ccc23)nc2ccccc2c1=O (stereo not given),.,0
O=S(=O)(c1ccccc1)c1nnn2c1nc(N1CCCCC1)c1sccc12,0.47,-0.65
CC(=O)N1CCC2(CC1)CC(=O)c1cc(OCC(=O)N3CCCC3)ccc1O2,-0.56,-0.55
Clc1ccc(N2CCN(c3ncnc4c3[nH]c3ccccc34)CC2)cc1,5.9,.
CCN=C1S/C(=C2\C(=O)N(C)c3ccccc32)C(=O)N1CC,.,1
CC12C=CC(C)(O1)C1C(=O)N(c3cc(C(F)(F)F)ccc3Cl)C(=O)C12 (stereo not given),0.36,.
CCCC(=O)Nc1nc2ccc(N)cc2s1,0.15,-2.3
CN(C)C(=O)c1nn(-c2ccc(Cl)cc2)c(=O)c2ccccc12,0.57,1.9
O=C(O)Cc1ccc2c(c1)OCO2,0.1,-0.65
Cc1ccc(-n2c(COc3cccc(C)c3)n[nH]c2=S)cc1,0.38,-0.5
CN(C)c1ccc(C2Nc3ccccc3O2)c(Cl)c1 (stereo not given),-0.93,.
FC(F)(F)c1ccc(Cl)c(Nc2ncnc(-n3cccc3)n2)c1,0.52,-0.5
CCOC(=O)CNC1=NCc2ccccc21,0.27,-0.3
O=C(CSc1nnc(-c2ccccc2)o1)Oc1ccc(Br)cc1,.,0.6
CN1CCc2c(Nc3ccc(Cl)cc3)nc3[nH]n(-c4ccccc4)c(=O)c3c21,.,-0.2
CCOc1ccc(-c2noc(CCCC(N)=O)n2)cc1OC,0.25,0.4
NC(=O)c1ccc(-c2ccnc(-c3ccc(Br)s3)n2)cc1,0.24,0.35
Cc1nc2c(-c3ccccc3)c(C)nn2c(C)c1CC(=O)NN1CCOCC1,0.66,-2.2
Cc1ccc(S(=O)(=O)NC(=O)n2cc(-c3ccncn3)c(-c3ccc(C(F)(F)F)cc3)n2)cc1,-0.49,.
Cc1cc(NCCN(C)C)c2ccccc2n1,.,0.2
CN(C(=O)CSc1nc(N)nn1-c1ccccc1)c1ccccc1,0.51,0.75
O=C(NCC1CCCO1)C1CC(=O)N(CCc2ccccc2)C1 (stereo not given),-1.1,-1
CCOc1ccc(C(=O)CC2OC(=O)c3ccccc32)cc1 (stereo not given),-0.095,1.2
COc1ccc2c(c1)-c1nc(NC(=O)c3ccccc3Br)sc1CC2,-0.17,-0.25
CC(=O)Nc1ccc(S(=O)(=O)NCC(C)(c2ccccc2)c2ccccc2)cc1,-0.18,.
Cc1ccc(S(=O)(=O)c2c(C)cc(-c3ccccc3)nc2Cl)cc1,3.3,.
O=[N+]([O-])/C=C/c1cc(Br)cs1,-1.2,.
CC(=O)N1N=C(c2ccccc2)OC1c1cccnc1 (stereo not given),9.3,0.15
O=C(N/N=C/c1ccc([N+](=O)[O-])c(O)c1)c1ccc2nonc2c1,-0.76,.
COc1ccc(OC)c2[nH]ccc12,-0.58,.
Cn1cnnc1SC(C(=O)Nc1cc(Cl)cc(Cl)c1)c1ccccc1 (stereo not given),-0.78,0.4
COc1ccc(C2(O)CN(c3ccc(C)cc3)C3=[N+]2CCCC3)cc1 (stereo not given),0.42,.
CCOC(=O)c1sc2nc(NC(=O)C3CC3)sc2c1C,.,0.2
O=c1ccc(/C=C/c2ccccc2)nn1Cc1ccc(Cl)cc1Cl,-0.18,.
O=C1CCCCC1OC(=O)C12CC3CC(CC(C3)C1)C2 (stereo not given),0.23,-0.65
O=C(Oc1ccc(Cl)cc1)c1cccs1,-0.11,0
CN1CCC(N(C)C(=O)/C=C/c2cn(-c3ccccc3)nc2-c2cccnc2)CC1,.,-0.05
CCOC(=O)c1cccc(-n2c(C)cc(/C=C3/C(=O)N(c4ccccc4)N=C3C)c2C)c1,0.45,.
Clc1ccc(N=C2CSc3nncn3N2)cc1Cl,-0.13,-0.1
CCOC(=O)c1c(CN2CCOCC2)n(-c2ccccc2)c2ccc(O)cc12,3.8,0.65
CC(OC(=O)c1cc2sccc2n1C)C(=O)NCC1CCCO1 (stereo not given),.,0.9
O=C(Nc1ccc(Cl)cc1)c1cnc(N2CCCC2)nc1,2.1,-0.15
O=C(CSc1nc(-c2cccs2)cc(C(F)(F)F)n1)NCc1ccncc1,-0.23,0
O=c1[nH]c(-c2ccccc2)c(-c2ccccc2)[nH]1,65,-0.5
Cn1cnnc1SCc1cccc2ccccc12,0.41,.
O=C1c2cccc3cccc(c23)C(=O)N1CCCN1CCN(CCCN2C(=O)c3cccc4cccc(c34)C2=O)CC1,1.2,.
Cc1c(C#N)c(NC(=O)CN(C)CC(=O)Nc2ccc(F)c(F)c2F)n(Cc2ccco2)c1C,.,-1
CCCCC/C=C/CC1CC(=O)N(NC(=O)/C=C/c2ccc(F)cc2Cl)C1=O (stereo not given),14,.
O=C(NCc1ccco1)c1scc2c1OCCO2,0.12,-1

# Later entries.
structure,CapD inh,AID504770
S=C(NCc1ccccc1)NCC(c1cccnc1)N1CCOCC1 (stereo not given),.,0.2
Cc1oc2c(c1-c1ccccc1)c(=O)oc1ccccc12,-0.3,.
COc1cccc(/C=N/NC(=O)Cc2ccccc2)c1,-0.09,-0.6
Cc1cccc(Cn2c(CCNC(=O)C(C)(C)C)nc3ccccc32)c1,0.11,1.1
Cc1cc(-c2ccc(Cl)s2)nc(-n2cccc2)n1,-0.065,-0.9
COc1ccccc1CCOC(=O)N(C)CCCN1c2ccccc2CCc2ccccc21,-0.88,.
O=C(CNC(=O)OCc1ccccc1)ON1C(=O)CCC1=O,0.7,-0.65
COc1ccc(C(=O)c2ccccc2)cc1,2,1.3
O=C(CSc1nnc(-c2cccnc2)o1)OC1CCCCC1,.,-0.15
CC(=O)Nc1ccc(C(=O)NCC(=O)OC(C)(C)C)cc1,-0.28,.
CNC(=O)CNC(=O)c1ccccc1,.,0.55
Clc1ccc(C=Nc2cccnc2)c(Cl)c1,6.4,.
O=C(NC(=O)c1ccccc1Cl)Nc1ccc2c(c1)S(=O)(=O)C=C2,1.8,1.1
COC(=O)c1ccccc1NC(=O)c1c(Cl)nc2sccn12,.,0
O=C(CSc1cccs1)Nc1ccc(F)cc1F,0.025,.
COc1ccc(NC(=O)c2ccc3c(=O)n(-c4ccc(OC)c(OC)c4)c(=S)[nH]c3c2)cc1Cl,1.1,.
O=C(Cc1ccccc1)NCCO,-0.41,-0.6
CCOc1ccc(N2C(=O)NC(=O)/C(=C/c3ccc(OC)c(Br)c3)C2=O)cc1,-0.075,.
COC(=O)CC1=C(C(=O)OC)C2(C(=O)Nc3ccccc32)C(C#N)=C(N)O1 (stereo not given),-0.095,-0.4
Nc1nnnn1Cc1ccccc1,0.065,-0.75
COC(=O)CCn1nc(-c2ccc(C)cc2)c2ccccc2c1=O,-0.65,0.75
Nc1ccn([C@H]2CC[C@@H](CO)O2)c(=O)n1,0.74&-0.79,-0.2
COc1ccc(C=Nc2c(C)n(C)n(-c3ccccc3)c2=O)cc1O,-0.08,.
CC(=O)NCCN1C(=O)C(=O)/C(=C(\O)c2ccccc2)C1c1ccccc1 (stereo not given),11,.
O=C(CCCn1c(=O)oc2ccccc21)N1CCN(S(=O)(=O)c2ccc3c(c2)CCC3)CC1,.,-1.4
CCSC1=C(C#N)C(=O)NC(CO)S1 (stereo not given),0.46,-1.2
CCCc1ccc(S(=O)(=O)NC2CCCC2OCc2ccccc2)cc1 (stereo not given),-0.33,.
CCC(CO)NC(=S)Nc1ccccc1C (stereo not given),0.31,0.05
COc1ccccc1CNC(=O)COC(=O)Cc1ccc(Br)cc1,-0.01,-0.7
COCCN1C(=O)c2ccccc2C(C(=O)NCC2COc3ccccc3O2)C1c1ccc(F)cc1 (stereo not given),-0.14,.
Cc1ccc(C(C)C)c(OCC(=O)Nc2cc(-c3nc4ncccc4o3)ccc2Cl)c1,-2.3,2
CC(C(=O)NCc1ccco1)N1CCN(C)CC1 (stereo not given),.,0
Cc1ccc(C(=O)C(OC(=O)c2c(C)cc(=O)oc2C)c2ccccc2)cc1 (stereo not given),-1.1,-0.4
CN(C)S(=O)(=O)c1cccc(C(=O)OCC(=O)NC2CC2)c1,.,1
CNC(C)c1ccc(OC)c(OC)c1 (stereo not given),-0.5,-0.4
C=CCc1cccc(/C=C(/C#N)C(N)=O)c1O,.,-1.6

# By substructure: the compounds so far containing an NH in an aromatic ring
structure,CapD inh,AID504770
COC(=O)COC(=O)c1ccc2[nH]c(=O)c(=O)[nH]c2c1,.,1.2
CC1CN(c2cc(=O)n(-c3ccc(Cl)cc3)c(=O)[nH]2)CC(C)O1 (stereo not given),-4.1*,0.25
COc1ccc(OC)c(C(c2c(O)[nH]c(=S)[nH]c2=O)N2CCN(c3ccccc3)CC2)c1 (stereo not given),0.46,-0.65
Clc1ccc(N2CCN(c3ncnc4c3[nH]c3ccccc34)CC2)cc1,5.9,.
Cc1ccc(-n2c(COc3cccc(C)c3)n[nH]c2=S)cc1,0.38,-0.5
CN1CCc2c(Nc3ccc(Cl)cc3)nc3[nH]n(-c4ccccc4)c(=O)c3c21,.,-0.2
COc1ccc(OC)c2[nH]ccc12,-0.58,.
O=c1[nH]c(-c2ccccc2)c(-c2ccccc2)[nH]1,65,-0.5
COc1ccc(NC(=O)c2ccc3c(=O)n(-c4ccc(OC)c(OC)c4)c(=S)[nH]c3c2)cc1Cl,1.1,.

# (next part)
structure,CapD inh,AID504770
CC(C)n1c(Sc2nccn2C)nc2c1c(=O)n(C)c(=O)n2C,0.78,.
Clc1cc2nsnc2cc1Cl,0.86,-0.2
CCCCNc1nc(SCC(=O)NCc2ccc(C)cc2)nc2ccccc12,0.99,.
O=C(NCCc1ccccc1)[C@@H](c1ccccc1)N1Cc2ccccc2C1=O,1.2,-0.45
N/C(=N/c1nc(CSc2ccc(Cl)cc2)cc(=O)[nH]1)Nc1ccc(F)cc1,-0.28,2.2
Cc1ccc(N2C(=O)C(N3C(=O)c4ccccc4C3=O)C2c2ccc(F)cc2)cc1F (stereo not given),-0.18,.
CC(Sc1nc(-c2ccccc2)cc(C(F)(F)F)n1)C(=O)NN1CCCCC1 (stereo not given),.,-0.5
CCC(Sc1nc2sc(C(=O)OC)c(C)c2c(=O)n1N)C(=O)N(CC)CC (stereo not given),3.3,-1.2
Cc1ccc(S(=O)(=O)NC(=O)N2CCN(C(=O)NS(=O)(=O)c3ccc(C)cc3)CC2)cc1,-0.2,.
CC(C)(C)c1nnc(N)s1,0.68,0.3
O=C(Cn1c(=O)oc2cc(S(=O)(=O)N3CCc4ccccc43)ccc21)NC1CCCCCC1,-0.54,-0.85
O=C(Cn1ncc(Cl)c(Cl)c1=O)NCC1CCCO1 (stereo not given),.,-0.45
c1ccc(CNc2ccc(N3CCCCC3)nn2)cc1,.,-1
CC(C)N(Cc1nnc(-c2ccccc2Cl)o1)C(=O)C1=CC=CN2CCS(=O)(=O)N=C12,.,0.1
COc1cccc(/C=C2\N=C(c3c(-c4ccccc4)noc3C)OC2=O)c1,0.16,0.9
COCCn1c(CCC(=O)NCc2ccc(C)cc2)nc2cccnc21,-0.095,-0.8
COc1ccc(OC)c(C2C3=C(Nc4c2c(=O)n(C)c(=O)n4C)c2ccccc2C3=O)c1 (stereo not given),-0.51,.
Cn1c(=O)c2sccc2n2c(CCCC(=O)N3CCCCC3)nnc12,0.025,-1.3
COc1ccc(CCC(=O)Nc2ccc3nc(N4CCN(c5ncccn5)CC4)cc(C)c3c2)cc1,48,-0.1
CCCNC(=O)c1cc(Cl)c2c(c1)OCO2,.,-0.65
NC(=S)Nc1cccc(C(F)(F)F)c1,.,0
Cc1ccc(C2OC3(C(=O)c4ccccc4C3=O)C3C(=O)N(c4ccccc4C(F)(F)F)C(=O)C23)cc1 (stereo not given),0.15,.
COc1ccc(CNC(=O)c2cnc(OC)cc2C(F)(F)F)cc1,-0.22,1.2
COc1ccc(C2Nc3ccccc3C(=O)N2Cc2ccco2)cc1COc1ccc(NC(C)=O)cc1 (stereo not given),68,.
O=C(O)CCSc1nnc(-c2ccncc2)n1-c1ccccc1,.,0
CCOC(=O)Cn1c(=NC(=O)CN2C(=O)CCC2=O)sc2cc(S(N)(=O)=O)ccc21,.,-0.05

# Rows are unselected; about 0.37% have a hit in one of these screens.
